NPC1 prom act – NPC1 promoter activation; Huh7 NPC1 promoter luciferase reporter, 24 h; 320,000 compounds, 2.4% hits; Potency, µM (titrated, usually from 9.22 µM), for inactives: at the highest dose activation, hits mostly activators;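 further: % of control where 0% means no effect; nearly all actives have a fitted effect of over 60% in size; reporter is driven by a mutant NPC1 promoter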
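Huh7 cells stably carrying NPC1 promoter–luciferase, plated in Opti-MEM with 10% FBS for 2 h, were exposed to compound in DMSO for 24 h at 37 °C; luciferase reagent was added for 10 min and luminescence read.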
MBNL1-CUG inh – blocks human MBNL1 binding to CUG repeat RNA; Q9NR56; TR-FRET MBNL1-His/biotin-(CUG)12 binding, 665/545 ratio; Potency, µM (highest dose often 57.5 µM), for the others: at the top dose activity change, negative = inhibition, most hits filed as inhibitors; 280,000 compounds, 0.036% hits; AID 2675; active means well fitted inhibition curve with a large enough effect in the signal ratio, with a control signal flat, not every such curve was filed as active; inconclusive means small, poorly fitted or top-dose-only effect, or effect the other way, or a change in a side signal; inactive means no such curve, though single readings can be large or run the other way; the % refers to the signal ratio; further: on the % scale 0 is the no-effect control and ±100 the full control effect
Target sequence (Q9NR56 whole entry, looked up): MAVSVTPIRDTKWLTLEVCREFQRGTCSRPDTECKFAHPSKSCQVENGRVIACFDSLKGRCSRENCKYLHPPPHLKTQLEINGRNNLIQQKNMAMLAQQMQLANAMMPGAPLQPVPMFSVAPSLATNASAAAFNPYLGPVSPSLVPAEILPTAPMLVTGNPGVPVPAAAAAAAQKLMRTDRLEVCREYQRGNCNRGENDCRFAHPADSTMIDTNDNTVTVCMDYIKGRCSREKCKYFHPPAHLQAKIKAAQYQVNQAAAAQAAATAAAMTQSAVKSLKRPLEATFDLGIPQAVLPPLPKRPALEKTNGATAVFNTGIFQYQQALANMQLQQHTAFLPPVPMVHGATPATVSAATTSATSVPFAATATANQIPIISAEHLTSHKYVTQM
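His-tagged MBNL1 binding to biotinylated (CUG)12 RNA was measured by TR-FRET using terbium anti-His antibody (0.055 ng/ul final) and streptavidin-XL665 (5 nM final). Compounds were titrated 92 nM to 58 uM; 60 min at room temperature.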
uPA surface inh – inhibitors of cell surface uPA generation; Potency, µM (series often up to 38.3 µM), for the others: at the highest dose activity change, negative = inhibition, most hits filed as inhibitors; 330,000 compounds, 0.31% hits; cell surface uPA generation assay, qHTS; AID 540303; active means well fitted inhibition curve with a large enough effect; inconclusive means small, poorly fitted or top-dose-only effect; inactive means no such curve, though single readings can be large or run the other way; tested in mouse RAW 264.7 cells; further: on the % scale 0 is the no-effect control and ±100 the full control effect; nearly all actives have a fitted effect of over 55% in size
BRCA1 expr up – increases BRCA1 expression; MCF7-BRCA1-FFLuc reporter, luminescence, 48 h; response scale: scaled: vehicle 0%, 10 µM genistein 100%; Potency, µM (highest dose often 46.1 µM), inactives show top-dose activation, usual class: activators; 380,000 compounds, 1.1% hits; further: nearly all actives have a fitted effect of over 80% in size; some results filed as inactive show a strong effect at the top dose
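MCF7-BRCA1-FFLuc, 2000 cells/well; 2 h attach, 37 °C/5% CO2; compound 48 h; luciferase substrate 15 min; luminescence end-point. Norm. to genistein 10 microM max activation and DMSO; concentration-response curves fitted.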
ELG1 genotoxic – inducers of genotoxicity in HEK293T ELG1-luciferase cells. Potency, µM (highest dose often 46 µM), without a hit: top-dose activity change, positive = activation, actives largely listed as activators. HEK293T ELG1-luciferase reporter, luminescence, 16 h. 330,000 compounds, 1.3% hits; further: % of control where 0% means no effect; nearly all actives have a fitted effect of over 60% in size
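Step 1: seed 2,000 HEK293T ELG1-luciferase cells per well. Step 2: add compound or DMSO, incubate 16 hr at 37 °C. Step 3: ONE-Glo, 30 min at room temperature, read luminescence.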
Starred values were filed as active, the others as inactive; ? = inconclusive; / = no result given; & = joins results of further samples; [ ] = another dose, or the depositor's remark. Unless noted, the call rests on the fitted dose curve; in most records, active means well fitted activation curve with a large enough effect; inconclusive means small, poorly fitted or top-dose-only effect; inactive means no such curve, though single readings can be large or run the other way. Potency means the concentration at half of the fitted maximal effect. Only part of the results is shown, so the mix of outcomes need not match the whole.

Key to letters: A = NPC1 prom act; B = MBNL1-CUG inh; C = uPA surface inh; D = BRCA1 expr up; E = ELG1 genotoxic
Compound: O=c1[nH]c(=O)n([C@H]2C[C@H](O)[C@@H](CO)O2)cc1C(F)(F)F
  A: -0.9% | B: 7.3% | C: -89.8% | D: -56.4% | E: 1.5%
Compound: CCN(CC)CCOC(=O)C1(C2CCCCC2)CCCCC1
  A: -2.1%[46.1 µM] | B: 0.6% | C: 15.5% | D: 0.0% | E: -3.0%
Compound: Nc1nc(=S)c2[nH]cnc2[nH]1
  A: -6.8% | B: / | C: 0.159µM* | D: -60.6% | E: -15.4%
Compound: OCCCN=c1cc(-c2ccccc2)oc2ccc(Cl)cc12
  A: 14.3% | B: ? | C: -12.8% | D: -44.4% | E: ?
Compound: CC(C)CN=c1cc(-c2ccccc2)oc2ccc(Cl)cc12
  A: 15.9% | B: ? | C: -18.0% | D: 0.0% | E: 3.5%
Compound: CN(C)c1ccc(O)c2c1CC1CC3C(N(C)C)C(=O)C(C(N)=O)=C(O)[C@@]3(O)C(=O)C1=C2O (stereo partly drawn)
  A: / | B: / | C: 2.1% | D: 9.0% | E: /
Compound: CC1OC1P(=O)(O)O (stereo not drawn)
  A: 3.9%[46.1 µM] | B: / | C: / | D: / | E: /
Compound: Cn1cc[nH]c1=S
  A: -1.8% | B: -5.8% | C: 1.7% | D: 2.6%&0.8% | E: -0.2%
Compound: CC1(C)O[C@@H]2C[C@H]3[C@@H]4C[C@H](F)C5=CC(=O)C=C[C@]5(C)[C@H]4[C@@H](O)C[C@]3(C)[C@]2(C(=O)CO)O1
  A: -0.6% | B: / | C: 6.8% | D: 0.3% | E: ?
Compound: CC(=O)OCC(=O)[C@@]1(O)CC[C@H]2[C@@H]3CCC4=CC(=O)CC[C@]4(C)[C@H]3C(=O)C[C@@]21C
  A: -7.6%[46.1 µM] | B: -7.1% | C: -22.6% | D: 3.1% | E: -7.7%
Compound: CCN1CCN(C(=O)N[C@@H](C(=O)N[C@@H]2C(=O)N3[C@@H]2SC(C)(C)[C@@H]3C(=O)O)c2ccccc2)C(=O)C1=O
  A: 0.1% | B: 31.6%[activator] | C: / | D: / | E: 0.5%
Compound: Cc1ccc2nc(N3C(=O)C(O)=C(C(=O)c4cc5ccccc5o4)C3c3cccs3)sc2c1 (stereo not drawn)
  A: 26.7% | B: 13.0% | C: -0.8% | D: -18.2% | E: ?

An excerpt of these results, with values under each structure.
Every second line gives: NPC1 prom act, MBNL1-CUG inh, uPA surface inh, BRCA1 expr up, ELG1 genotoxic
Cn1cc[nH]c1=S
    -1.8%, -5.8%, 1.7%, 2.6%&0.8%, -0.2%
CN(C)c1ccc(O)c2c1CC1CC3C(N(C)C)C(=O)C(C(N)=O)=C(O)[C@@]3(O)C(=O)C1=C2O (stereo partly drawn)
    /, /, 2.1%, 9.0%, /

Five entries picked at random from those above:
Key to letters: A = NPC1 prom act; B = MBNL1-CUG inh; C = uPA surface inh; D = BRCA1 expr up; E = ELG1 genotoxic
Compound: CN(C)c1ccc(O)c2c1CC1CC3C(N(C)C)C(=O)C(C(N)=O)=C(O)[C@@]3(O)C(=O)C1=C2O (stereo partly drawn)
  A: / | B: / | C: 2.1% | D: 9.0% | E: /
Compound: CC(C)CN=c1cc(-c2ccccc2)oc2ccc(Cl)cc12
  A: 15.9% | B: ? | C: -18.0% | D: 0.0% | E: 3.5%
Compound: OCCCN=c1cc(-c2ccccc2)oc2ccc(Cl)cc12
  A: 14.3% | B: ? | C: -12.8% | D: -44.4% | E: ?
Compound: CCN(CC)CCOC(=O)C1(C2CCCCC2)CCCCC1
  A: -2.1%[46.1 µM] | B: 0.6% | C: 15.5% | D: 0.0% | E: -3.0%
Compound: Nc1nc(=S)c2[nH]cnc2[nH]1
  A: -6.8% | B: / | C: 0.159µM* | D: -60.6% | E: -15.4%
